# Assay outcomes: PubChem, Southern Research Institute
# total CFTR: compounds raising F508del-CFTR protein level – cell-based, HeLa F508del-CFTR, immunofluorescence, viability, primary screen (AID 1224863); HeLa F508del-CFTR, immunofluorescence total CFTR, 24 h; by the record results were divided by relative cell number; some inactives read as strong as hits; calls, or highest fold increase where a dose series was run; hit rate 0.1% among 10,000; in the data nearly all actives have a first-pass fold increase above 1.5; a few of its hits are not listed in these tables;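 also: total CFTR protein by anti-CFTR immunofluorescence in fixed cells; first pass at 25 µM or 10 µg/mL by library and series up to twice that; 1 = untreated cells; first-pass hits also needed half or more of the cells alive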
# total CFTR fold 25 µM: recorded beside total CFTR, whose call it bears; fold increase; measured here: primary screen single dose 25 uM; library dosed in µM
# total CFTR fold 10 ug/mL: recorded beside total CFTR, whose call it bears; fold increase; measured here: primary screen 10 ug/mL
# total CFTR viability 25 µM: second read-out of total CFTR, no call of its own (marks repeat the call); viability, %; measured here: primary viability 25 uM; library dosed in µM;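 0% = killed and 100% = untreated cells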
# total CFTR viability 10 ug/mL: also measured in total CFTR; calls as there; viability, %; measured here: primary viability 10 ug/mL;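 0% = killed and 100% = untreated cells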
# * marks the source's active call; other numbers are inactive results; i = inactive; · = no result given; + = active, no number; & = joins results of further samples; ! = not active in a repeat.
SMILES,total CFTR,total CFTR fold 25 µM,total CFTR viability 25 µM,others
CC(C)(C)CC(C)(C)c1ccc(O)cc1,i,0.79,81.0,
O=C1CCN(C(=O)C2CC2)CC1,i,·,·,total CFTR fold 10 ug/mL=1.02;total CFTR viability 10 ug/mL=97.0
CN1[C@@H]2CC[C@H]1CC(OC(=O)C1C=Nc3ccccc31)C2 (some centres not stated),i,1.06,83.0,
O=C(O)c1ccccc1-c1c2cc(Br)c(=O)cc-2oc2[c]([Hg])c(O)c(Br)cc12,+,4.2*,94.0*,
Cc1ncc(CNC(=O)N(CCCl)N=O)c(N)n1,i,1.05,108.0,
CC(Cc1ccc(O)cc1)NCC(O)c1cc(O)cc(O)c1 (configuration not stated),i,1.04,99.0,
C[C@@H](N)[C@@H](O)c1ccccc1,i,1.11,89.0,
C[C@]12CC[C@H]3[C@@H](CC[C@@]45O[C@@H]4C(O)=C(C#N)C[C@]35C)[C@@H]1CC[C@@H]2O,i,1.15,90.0,
NC1COc2ccccc2C1 (configuration not stated),i,·,·,total CFTR fold 10 ug/mL=1.07;total CFTR viability 10 ug/mL=97.0
CN1C(=O)C(=CC2=Cc3cc(Cl)ccc3OC2)C(=O)N(C)C1=O,i,·,·,total CFTR fold 10 ug/mL=1.05;total CFTR viability 10 ug/mL=102.0
COc1cc2c(cc1OC)[C@@]13CCN4CC5=CCOC6CC(=O)N2C1[C@H]6[C@H]5C[C@H]43 (some centres not stated),i,1.11,85.0,
CNC(C)c1ccc(F)cc1 (configuration not stated),i,·,·,total CFTR fold 10 ug/mL=1.07;total CFTR viability 10 ug/mL=95.0
Oc1cccc2cccnc12,i,0.86,71.0,
CNc1ccc(C(=O)CC(O)CCC(C)C2OC(=O)CC(O)CC(=O)CC(O)CC(O)CC(O)CC(O)CC3(O)CC(O)C(C(=O)OC)C(CC(O[C@@H]4O[C@H](C)[C@@H](O)[C@H](N)[C@@H]4O)/C=C/C=C/C=C/C=C/C=C/C=C/C=C/C2C)O3)cc1 (some centres not stated),i,1.18,93.0,
COc1cccc([C@@]2(O)CCCC[C@@H]2CN(C)C)c1,i,1.06,95.0,
CC(C)N(CCC(C(N)=O)(c1ccccc1)c1ccccn1)C(C)C (configuration not stated),i,1.07,92.0,
CC(=O)OC1CN2CCC1CC2 (configuration not stated),i,0.99,100.0,
OCC(Br)(Br)Br,i,1.1,92.0,
O=[N+]([O-])c1ccc(NC2CCN(C3CC3)CC2)nc1,i,·,·,total CFTR fold 10 ug/mL=1.18;total CFTR viability 10 ug/mL=95.0
CCC1(CC)C(=O)NC(=O)NC1=O,i,1.12,82.0,
NCC(CC(=O)O)c1ccc(Cl)cc1 (configuration not stated),i,1.25,103.0,
CC[C@H]1C2CC3[C@@H]4N(C)c5ccccc5[C@]45C[C@@H](C2C5O)N3[C@@H]1O (some centres not stated),i,1.03,104.0,
C=CCN1CCC23c4c5ccc(O)c4O[C@H]2C(=O)CC[C@@]3(O)[C@H]1C5,i,1.05,107.0,
C[C@]12CC[C@H](O)CC1=CCC1C2CC[C@]2(C)C(=O)CC[C@@H]12 (some centres not stated),i,1.06,108.0,
CC(C)(C)NCC(O)c1cc(Cl)c(N)c(Cl)c1 (configuration not stated),i,1.06&1.01,90.0&84.0,
# (more compounds)
SMILES,total CFTR,total CFTR fold 25 µM,total CFTR viability 25 µM,others
COc1ccc2c(c1OC)C(=O)O[C@@H]2[C@H]1c2cc3c(cc2CCN1C)OCO3,i,1.04,100.0,
CC(C)CC(N(C)C)C1(c2ccc(Cl)cc2)CCC1 (configuration not stated),i,1.09&1.04,103.0&99.0,
CC(O)(CS(=O)(=O)c1ccc(F)cc1)C(=O)Nc1ccc(C#N)c(C(F)(F)F)c1 (configuration not stated),i,0.99&0.92,97.0&92.0,
CC[C@H](C)[C@H]1O[C@]2(C=C[C@@H]1C)C[C@@H]1C[C@@H](C/C=C(\C)[C@@H](O[C@H]3C[C@H](OC)[C@@H](O[C@H]4C[C@H](OC)[C@@H](O)[C@H](C)O4)[C@H](C)O3)[C@@H](C)/C=C/C=C3\CO[C@@H]4[C@H](O)C(C)=C[C@@H](C(=O)O1)[C@]34O)O2,i,1.19,74.0,
C[C@@H]1O[C@@H](O[C@H]2C[C@@H](O)[C@]3(CO)C4C(CC[C@]3(O)C2)[C@@]2(O)CC[C@H](C3=CC(=O)OC3)[C@@]2(C)C[C@H]4O)[C@H](O)[C@H](O)[C@H]1O (some centres not stated),i,0.57,30.0,
CN1CCc2cccc3c2C1Cc1ccc(O)c(O)c1-3 (configuration not stated),i,0.76,69.0,
O=c1cccc2n1CC1CNCC2C1 (configuration not stated),i,1.04,103.0,
CCC(C)[C@H]1O[C@]2(C=C[C@@H]1C)C[C@@H]1C[C@@H](C/C=C(\C)[C@@H](OC3C[C@H](OC)C(O[C@H]4C[C@H](OC)[C@@H](O)[C@H](C)O4)[C@H](C)O3)[C@@H](C)/C=C/C=C3\CO[C@@H]4[C@H](O)C(C)=C[C@@H](C(=O)O1)[C@]34O)O2 (some centres not stated),i,1.22,48.0,
CC(CO)NC(=O)C1C=C2c3cccc4[nH]cc(c34)C[C@H]2N(C)C1 (some centres not stated),i,0.91,101.0,
O=C(N/N=C/c1ccc([N+](=O)[O-])o1)c1cc([N+](=O)[O-])cc([N+](=O)[O-])c1O,i,1.08,98.0,
C=C/C=C\CC1=C[C@@H](OC(=O)[C@@H]2[C@@H](C=C(C)C)C2(C)C)CC1=O,i,0.89,82.0,
C[N+]1(O)C2CCC1CC(OC(=O)C(CO)c1ccccc1)C2 (configuration not stated),i,0.99,112.0,
O=C(OCc1c(Cl)cccc1Cl)C(O)(c1ccccc1)c1ccccc1,i,·,·,total CFTR fold 10 ug/mL=0.92;total CFTR viability 10 ug/mL=85.0
CC1(C)CC(Nc2ccc([N+](=O)[O-])c3cccnc23)CC(C)(C)N1,i,·,·,total CFTR fold 10 ug/mL=0.85;total CFTR viability 10 ug/mL=78.0
COc1ccccc1COC(=O)C(O)(c1ccccc1)c1ccccc1,i,·,·,total CFTR fold 10 ug/mL=1.05;total CFTR viability 10 ug/mL=93.0
N[C@@H](Cc1ccc(N(CCCl)CCCl)cc1)C(=O)O,i,0.92&0.91,97.0&79.0,
NCC(O)c1ccc(O)cc1 (configuration not stated),i,1.06,106.0,
Cc1nc2ccccc2n1CN1CC=C(c2ccccc2)CC1,i,·,·,total CFTR fold 10 ug/mL=1.01;total CFTR viability 10 ug/mL=98.0
CCC1(CC)C(=O)C=CNC1=O,i,1.22,87.0,
C[C@]12CCC(=O)C=C1CCC1C2CC[C@@]2(C)C1CC[C@@H]2O (some centres not stated),i,0.87,108.0,
C[C@@H]1CC[C@H]2[C@@H](C)C(=O)O[C@@H]3OC4(C)CC[C@@H]1[C@]32OO4,i,1.03&0.96,89.0&92.0,
O=C1CN=C(c2ccccc2Cl)c2cc([N+](=O)[O-])ccc2N1,i,0.72,81.0,
C[C@]12CC[C@H](OC3OC(O)C(O)C(O)C3O)C=C1CCC1C2CC[C@]2(C)[C@@H](c3ccc(=O)oc3)CC[C@]12O (some centres not stated),i,0.59,37.0,
Oc1ccc2c3c1OC1[C@@H](O)CC[C@@]4(O)[C@@H](C2)N(CC2CCC2)CC[C@]314 (some centres not stated),i,1.04,92.0,
CNC(=O)Oc1ccccc1OC(C)C,i,1.05,106.0,

# Two records drawn at random from those above:
SMILES,total CFTR,total CFTR fold 25 µM,total CFTR viability 25 µM,others
O=C(N/N=C/c1ccc([N+](=O)[O-])o1)c1cc([N+](=O)[O-])cc([N+](=O)[O-])c1O,i,1.08,98.0,
COc1cc2c(cc1OC)[C@@]13CCN4CC5=CCOC6CC(=O)N2C1[C@H]6[C@H]5C[C@H]43 (some centres not stated),i,1.11,85.0,

# More structures follow.
SMILES,total CFTR,total CFTR fold 25 µM,total CFTR viability 25 µM,others
CCCC(C)C1(CC)C(=O)N=C(S)NC1=O (configuration not stated),i,1,91.0,
CC(C)NCC(O)c1ccc(N)c(C#N)c1 (configuration not stated),i,1.07,99.0,
CN1[C@@H]2CC[C@H]1CC(OC(=O)C(CO)c1ccccc1)C2 (some centres not stated),+!,3.61*!,75.0*!,
NCCC(O)(P(=O)(O)O)P(=O)(O)O,i,0.94,92.0,
COP(=S)(OC)Oc1cc(Cl)c(Cl)cc1Cl,i,1.02,107.0,
COC(=O)C1=CCCN(C)C1,i,1.01,98.0,
CN(C)C(=O)Oc1cc(OC(=O)N(C)C)cc(C(O)CNC(C)(C)C)c1 (configuration not stated),i,1.05&0.95,103.0&85.0,
COc1ccc(CCNCc2ccc(N(C)C)c([N+](=O)[O-])c2)cc1,i,·,·,total CFTR fold 10 ug/mL=0.97;total CFTR viability 10 ug/mL=109.0
C#CCN(C)C(C)Cc1ccccc1 (configuration not stated),i,1.06,111.0,
O=[N+]([O-])C(Br)(CO)CO,i,0.87,93.0,
CC(C)(O)C(Cl)(Cl)Cl,i,1.1,89.0,
CC(C)=CC1C(C(=O)OCc2cccc(Oc3ccccc3)c2)C1(C)C (configuration not stated),i,1.15,86.0,
CN1C[C@@H](NS(=O)(=O)N(C)C)C[C@@H]2c3cccc4c3c(cn4C)C[C@H]21,i,1.05,94.0,

# By substructure: those above with a nitro group on carbon.
SMILES,total CFTR,total CFTR fold 25 µM,total CFTR viability 25 µM,others
O=[N+]([O-])c1ccc(NC2CCN(C3CC3)CC2)nc1,i,·,·,total CFTR fold 10 ug/mL=1.18;total CFTR viability 10 ug/mL=95.0
O=C(N/N=C/c1ccc([N+](=O)[O-])o1)c1cc([N+](=O)[O-])cc([N+](=O)[O-])c1O,i,1.08,98.0,
CC1(C)CC(Nc2ccc([N+](=O)[O-])c3cccnc23)CC(C)(C)N1,i,·,·,total CFTR fold 10 ug/mL=0.85;total CFTR viability 10 ug/mL=78.0
O=C1CN=C(c2ccccc2Cl)c2cc([N+](=O)[O-])ccc2N1,i,0.72,81.0,
COc1ccc(CCNCc2ccc(N(C)C)c([N+](=O)[O-])c2)cc1,i,·,·,total CFTR fold 10 ug/mL=0.97;total CFTR viability 10 ug/mL=109.0
O=[N+]([O-])C(Br)(CO)CO,i,0.87,93.0,

# Structural class, the entries above with a tert-butyl group
SMILES,total CFTR,total CFTR fold 25 µM,total CFTR viability 25 µM,others
CC(C)(C)CC(C)(C)c1ccc(O)cc1,i,0.79,81.0,
CC(C)(C)NCC(O)c1cc(Cl)c(N)c(Cl)c1 (configuration not stated),i,1.06&1.01,90.0&84.0,
CN(C)C(=O)Oc1cc(OC(=O)N(C)C)cc(C(O)CNC(C)(C)C)c1 (configuration not stated),i,1.05&0.95,103.0&85.0,

# A portion of the library (hit frequency here may not be typical).
